Screening data from PubChem BioAssay.
HNF4A DNA FP – change in binding of human HNF4 alpha to DNA; 0.3% of 360,000 active; HNF4a-FITC DNA binding, fluorescence polarization, 1 h; AID 1224865; activity change, % at 10 µM; in the data active means activity change above about 30%, passing the limit was not always enough;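 further: controls were the assay level and a saturating level of protein; the project sought stronger binding though the title names inhibitors; some compounds called inactive have numbers as strong as hits; positive values seem to mean higher polarization but the record does not say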
Target sequence (P41235 whole entry, looked up): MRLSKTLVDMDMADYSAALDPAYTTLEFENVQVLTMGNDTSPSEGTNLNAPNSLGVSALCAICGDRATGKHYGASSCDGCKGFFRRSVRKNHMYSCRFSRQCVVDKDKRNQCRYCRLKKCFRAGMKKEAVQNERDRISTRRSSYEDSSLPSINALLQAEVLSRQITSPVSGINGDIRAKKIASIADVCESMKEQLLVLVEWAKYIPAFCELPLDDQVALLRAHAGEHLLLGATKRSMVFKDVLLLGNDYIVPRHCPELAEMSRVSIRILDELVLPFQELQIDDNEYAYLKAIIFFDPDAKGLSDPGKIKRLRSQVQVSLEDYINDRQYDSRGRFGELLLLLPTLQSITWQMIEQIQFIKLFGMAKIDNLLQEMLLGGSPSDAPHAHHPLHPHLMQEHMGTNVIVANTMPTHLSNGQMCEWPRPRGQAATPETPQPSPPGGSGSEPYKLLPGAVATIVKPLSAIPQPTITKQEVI
FGF22 binding – binders of recombinant human FGF22 by thermal shift | Q9HCT0 | SYPRO orange fluorescence; percent of sucrose octasulfate shift, DMSO zero | calls only at 9.99 µM | 1.5% of 340,000 active | AID 651658;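 active means melting point raised past a set limit in the mean and every replicate; three in four hits are not shown here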
E coli growth – blocks Escherichia coli growth | AID 1053175 | OD600 absorbance (test concentration not listed) | 0.21% of 330,000 active | OD600, 23 h; active compounds read low;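 active means OD600 absorbance below the run mean of sample wells minus 3.6 SD, in any replicate, cut at about 0.56 in these data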;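 further: stock transfer was 300 nL into about 60 µL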
ALR H2O2 inh – inhibitors of human sulfhydryl oxidase ALR | purified ALR, DTT oxidation, H2O2 HRP-luminol luminescence | inhibition, % (no concentration beside the values) | 3.8% of 290,000 active | AID 485317;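 active means mean and each replicate at 75% or more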;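 further: stock transfer was 7.5 nL into about 7.5 µL; 0% = neutral wells and 100% = wells with inactivated enzyme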
Target sequence (P55789 whole entry, looked up): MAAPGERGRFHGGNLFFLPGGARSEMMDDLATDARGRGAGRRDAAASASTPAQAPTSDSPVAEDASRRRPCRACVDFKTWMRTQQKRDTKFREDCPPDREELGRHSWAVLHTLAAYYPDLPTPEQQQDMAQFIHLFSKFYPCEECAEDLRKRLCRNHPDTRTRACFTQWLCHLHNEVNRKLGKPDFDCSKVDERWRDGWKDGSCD
UCH37 inh – inhibitors of human deubiquitinating enzyme UCH37 | Q9Y5K5 | purified proteasome/UCH37, Ub-AMC cleavage fluorescence | inhibition, % (concentration not given with the values) | 0.33% of 330,000 active;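 active means mean of two replicates above 20%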;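 further: 0% = compound-free wells with enzyme and 100% = wells lacking proteasome; stock transfer was 100 nL into about 20 µL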
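Test system – human UCH37 enzyme supplied as purified proteasome complex · Incubation – 30 min preincubation with enzyme, 25 min cleavage at room temperature · Detection – AMC fluorescence from Ub-AMC cleavage, excitation 355 nm, emission 460 nm · Benchmarks – no-proteasome wells (full inhibition) and compound-free wells (no inhibition)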
LANA-H2A inh – blocks KSHV LANA binding to histone H2A/H2B; 0.6% of 320,000 active; AID 2629; inhibition, % (no concentration beside the values); cell-free LANA-H2A/H2B peptide, fluorescence polarization; Q9QR71; in the data active means inhibition mostly above about 10%, no sharp cut-off; inactive means mostly below about 6.7%;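 further: stock transfer was 7.5 nL into about 10 µL; 0% = median of vehicle wells and 100% = median of positive control wells; one replicate is shown; the record names a cut of 25% in any replicate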
B2AR ag – activates human beta-2 adrenergic receptor causing internalization; P07550; Am2.2-beta2AR cells, FAP receptor internalization, flow cytometry; reference of the scale not given here; response, % (no concentration beside the values); 0.43% of 340,000 active;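 active means response above a set limit, near 3 SD of response in nonfluorescent compounds, cut at about 42% in these data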;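 further: stock transfer was 100 nL into about 11 µL; a reference agonist was the positive control; negative values mostly stem from fluorescent compounds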
Target sequence (P07550 whole entry, looked up): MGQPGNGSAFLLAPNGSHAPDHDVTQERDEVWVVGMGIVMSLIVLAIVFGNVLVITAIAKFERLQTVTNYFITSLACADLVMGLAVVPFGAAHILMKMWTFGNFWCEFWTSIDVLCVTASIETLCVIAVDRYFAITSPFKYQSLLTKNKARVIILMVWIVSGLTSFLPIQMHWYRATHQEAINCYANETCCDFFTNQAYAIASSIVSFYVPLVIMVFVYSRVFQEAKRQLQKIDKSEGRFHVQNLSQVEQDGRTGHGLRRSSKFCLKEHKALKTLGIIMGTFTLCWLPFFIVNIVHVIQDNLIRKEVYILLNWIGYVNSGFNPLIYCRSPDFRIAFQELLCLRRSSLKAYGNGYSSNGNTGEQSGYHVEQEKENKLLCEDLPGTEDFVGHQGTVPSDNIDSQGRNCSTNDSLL
Starred values were filed as active, the others as inactive; i = inactive; · = not tested or not shown. An excerpt; rates above refer to the full screens.

SMILES	HNF4A DNA FP	FGF22 binding	E coli growth	ALR H2O2 inh	UCH37 inh	LANA-H2A inh	B2AR ag
Cc1cc(C(=O)Nc2sc(C)c(C)c2C#N)c(C)o1	0.4	·	0.72	11	-10	2.0	6
C=C(C)CN(CC)C(=O)COc1ccc(S(=O)(=O)Nc2ccc(OC)cc2)cc1	-1.2	·	0.73	-14	3.0	-5.2	-2
COc1ccc(OCc2nnc3n2N=C(c2ccccc2)C(CC(=O)O)S3)cc1 (stereo unspecified)	-1.7	i	·	5	·	6.8	4
FC(F)(F)c1cnc(Oc2ccccc2-c2nnco2)c(Cl)c1	-3.0	·	0.78	5	1.0	2.2	1
COC(=O)c1cccc(C23CC4(C2)[C@H](CN(C)[C@@H]4c2ccccc2)C3c2ccc(C(F)(F)F)cc2)c1 (stereo partly specified)	-7.1	i	·	-4	0.8	1.5	7
O=C(OCN1C(=O)c2ccccc2C1=O)c1cccc(OC(F)F)c1	3.0	i	0.7	-2	-0.3	1.0	-13
COc1ccc(S(=O)(=O)NCC(c2ccc(F)cc2)N2CCOCC2)cc1Br (stereo unspecified)	0.2	i	0.67	·	5.3	·	-4
O=C(O)CCCC(=O)N1CCCC1	-0.1	i	0.68	-2	-2.6	0.1	3
CC(C)NC(=O)C(c1ccc(F)cc1)N(C(=O)CCC(=O)Nc1ccccn1)C1CCCC1 (stereo unspecified)	0.8	i	0.7	2	1.8	-2.1	-10
OCC[C@@H]1C[C@H](O)[C@@H](O)[C@@]2(OCCCc3ccccc32)O1	2.2	i	·	2	0.9	-0.6	3
O=C(CN1CCCC1)Nc1ccc(Br)cc1	1.2	i	0.67	6	2.7	-1.7	1
Cc1ccc(N=Cc2c(O)c3ccccc3oc2=O)c(C)c1	4.4	i	0.7	-3	-147	0.8	-21
COc1ccc(NCCc2ccccn2)cc1	1.8	i	0.66	100*	0.0	1.8	-2
O=S(=O)(Nc1ccc2[nH]ncc2c1)c1ccccc1Cl	2.8	i	0.7	0	1.4	6.8	61*
C[C@H](CO)N1C[C@H](C)[C@@H](CN(C)S(=O)(=O)c2cn(C)cn2)Oc2ccc(NC(=O)Cc3ccccc3)cc2C1=O	0.1	i	0.75	0	-5.1	1.3	0
COc1ccc(CCNC(=O)c2cc(-c3ccccc3)c(N3CCOCC3)s2)cc1OC	-0.9	i	0.74	10	3.7	2.6	21
Nn1c(SC/C=C/c2ccccc2)nnc1-c1ccccn1	1.0	·	0.7	-9	-0.2	-2.2	-4
CNc1nc(N)c([N+](=O)[O-])c(N2CCCCCC2)n1	4.1	i	0.61	-2	8.6	0.7	-5
C#CCOC(=O)c1csc2nnsc12	-3.6	·	0.65	-26	1.5	5.7	7
CCOc1cccc2cc(C(=O)NCc3ccc(F)cc3)c(=N)oc12	-2.8	i	0.67	-7	-1.4	4.7	18
Cc1ccc2c(c1)N(CCC(=O)NC1CCCCC1)C(=O)CO2	-0.5	i	0.67	-26	1.3	-4.7	-5
O=S(=O)(c1ccccc1)c1nc(-c2ccco2)oc1NCc1ccco1	1.4	·	0.69	3	-0.7	4.9	-7
Cc1ccc(N2C(=O)C3C(C(=O)c4ccccc4)=NN(c4ccccc4)C3C2=O)cc1 (stereo unspecified)	6.0	i	·	·	0.2	·	6
CC1=C(C(=O)OC(C)C)C(c2ccc(Cl)cc2)n2c(s/c(=C\c3ccc(OCC(=O)O)cc3)c2=O)=N1 (stereo unspecified)	-18	i	·	3	·	0.3	12
CSc1nc2nc3c(cc2c(=O)n1-c1ccccc1C)COC(C)(C)C3	3.4	i	0.68	-17	3.9	0.9	-3

Compound profiles (already shown).
Cc1cc(C(=O)Nc2sc(C)c(C)c2C#N)c(C)o1 as listed: HNF4A DNA FP = 0.4; FGF22 binding = ·; E coli growth = 0.72; ALR H2O2 inh = 11; UCH37 inh = -10; LANA-H2A inh = 2.0; B2AR ag = 6
OCC[C@@H]1C[C@H](O)[C@@H](O)[C@@]2(OCCCc3ccccc32)O1 as listed: HNF4A DNA FP = 2.2; FGF22 binding = i; E coli growth = ·; ALR H2O2 inh = 2; UCH37 inh = 0.9; LANA-H2A inh = -0.6; B2AR ag = 3

(continued)
SMILES	HNF4A DNA FP	FGF22 binding	E coli growth	ALR H2O2 inh	UCH37 inh	LANA-H2A inh	B2AR ag
Cc1cc2[nH]c(=O)c(=O)[nH]c2cc1S(=O)(=O)N1CCN(c2ccccc2F)CC1	-0.1	i	0.71	-1	3.8	2.0	-5
O=C(NCCOC(=O)C1COc2ccccc2O1)C1COc2ccccc2O1 (stereo unspecified)	-3.4	·	0.71	-3	3.2	1.7	-5
CC(=O)OCC(=O)Nc1ccc(N=Nc2ccccc2)cc1	1.1	i	0.66	-4	10	6.9	1
O=C(CN1C(=O)C2CCCCN2C(=O)c2ccccc21)N1CCCc2ccccc21 (stereo unspecified)	2.3	·	0.74	-1	-2.3	4.6	1
C=CCSc1nnc2n(CCc3ccccc3)c(=O)c3c4c(sc3n12)COC(C)(C)C4	-0.1	·	0.76	-8	-2.0	-1.5	0
CCCCCOC(=O)c1ccccc1C(=O)O	-1.9	·	0.71	-15	6.1	1.2	6
Cn1c(SCC(=O)N/N=C/C=C/c2ccco2)nc2ccccc21	-13	·	·	·	·	-0.3	-12
Cc1cc(=O)oc2cc(NC(=S)NCc3cccnc3)ccc12	-0.2	i	0.62	·	-23	1.4	-2
CC12CN3CCN(CC(C3)/C1=N/NC(=O)Nc1ccccc1)C2	2.3	i	·	-5	·	-1.6	4
Cc1cccc(N2C(=O)CC(Sc3nc(C)c4c(n3)CCCC4)C2=O)c1 (stereo unspecified)	1.8	·	0.67	-12	1.0	2.0	-34
Cc1cc(=O)[nH]c2ccc(S(=O)(=O)NCc3ccccc3)cc12	3.6	i	0.75	-15	8.1	0.6	3
Oc1ccc(Br)cc1Cn1nnc2ccccc21	-6.2	i	0.6	·	2.8	-0.2	1
COC(=O)c1c(C)oc2ccc(N(C(C)=O)S(=O)(=O)c3ccccc3)cc12	10.0	i	0.63	17	0.3	0.3	1
Cn1cc(S(=O)(=O)N2CCC(Cc3ccccc3)CC2)c(=O)n(C)c1=O	-0.6	i	0.76	16	-0.3	3.9	-9
CCOC(=O)C1CCN(C(=O)c2cc3ccc(OC)cc3[nH]2)CC1	-4.7	i	0.66	-21	3.0	-2.8	12
CCC(C)NC(=O)C1c2ccccc2C(=O)N1Cc1ccc(OC)cc1OC (stereo unspecified)	0.1	·	0.72	-21	-0.1	-0.5	1
C=C(C)CNC(=S)NNC(=O)CCn1c2ccccc2c2ccccc21	0.4	·	0.67	17	0.9	-1.3	-2
O=C1CNC(=S)N1CCCc1ccccc1	-4.6	·	0.71	43	6.6	1.3	0
C#CCOCCOCCOCCNc1nc(N2CCN(C(=O)CCCCCCCCCCNC(=O)[C@@H](CCSC)n3cc(CCO)nn3)CC2)nc(N2CCN(C(=O)CCCCCCCCCCNC(=O)[C@H](CCCN=C(N)N)n3cc(C[C@@H](C)CC)nn3)CC2)n1	257	·	·	-3	·	1.9	58*
CCS(=O)(=O)NCCCc1ccccc1	1.2	·	0.68	0	3.7	8.1	1
C=C(c1ccc(O)cc1)c1ccc(O)cc1	-1.9	·	0.75	98*	-21	5.9	-1
COc1ccc(Cc2c(O)nc(SCC(=O)NC(C)(C)C)[nH]c2=O)cc1	3.5	i	0.69	84*	5.5	-0.8	-2
Cc1ccc(C(=O)N/C(=C\c2ccc(Br)cc2)c2nc(=S)[nH][nH]2)cc1	0.1	i	0.73	-13	-2.8	3.5	1
Cc1nc2ccc(S(=O)(=O)Nc3cccc(-c4nc5cccnc5s4)c3)cc2s1	1.7	i	0.72	-4	4.0	0.2	-24
COc1cc(NC(=O)c2cccs2)c(C(=O)OCC(=O)NCc2ccccc2)cc1OC	-0.3	·	0.7	-1	-140	-9.9	-2

Arranged by length of the SMILES (descending): 4 of the compounds above
SMILES	HNF4A DNA FP	FGF22 binding	E coli growth	ALR H2O2 inh	UCH37 inh	LANA-H2A inh	B2AR ag
COc1ccc(Cc2c(O)nc(SCC(=O)NC(C)(C)C)[nH]c2=O)cc1	3.5	i	0.69	84*	5.5	-0.8	-2
CC12CN3CCN(CC(C3)/C1=N/NC(=O)Nc1ccccc1)C2	2.3	i	·	-5	·	-1.6	4
O=C(CN1CCCC1)Nc1ccc(Br)cc1	1.2	i	0.67	6	2.7	-1.7	1
C#CCOC(=O)c1csc2nnsc12	-3.6	·	0.65	-26	1.5	5.7	7

(listing goes on)
SMILES	HNF4A DNA FP	FGF22 binding	E coli growth	ALR H2O2 inh	UCH37 inh	LANA-H2A inh	B2AR ag
COc1ccccc1NC(=O)COc1cccc(-n2cnnn2)c1	-4.2	·	0.67	-2	1.9	-0.9	-2
Cc1ccc(/C=C(\NC(=O)c2ccccc2)C(=O)N2CCCCC2)cc1	0.9	i	0.71	·	0.8	-1.5	-6
COc1ccc(C(=O)NCC(C)(C)CNC(=O)c2ccc(OC)cc2)cc1	-1.7	i	0.7	-15	-1.6	3.5	-6
CCn1c(SCC(=O)c2ccc3c(c2)OCCO3)nnc1-c1ccco1	-1.1	·	0.68	14	2.1	6.8	4
CCOC(=O)N1CCN(c2nc(C)c3c(n2)CC(C)CC3=O)CC1 (stereo unspecified)	3.5	·	0.73	-12	2.7	-0.2	-2
CC(=O)c1cccc(NC(=O)CN2C(=O)c3ccccc3C2=O)c1	-2.7	i	0.69	·	1.1	-1.5	0
O=C(Nc1ccccc1C(F)(F)F)N1CCN(c2ccc3nncn3n2)CC1	0.8	i	0.7	-5	2.1	-2.6	-2
CC(=O)Nc1ccc(NS(=O)(=O)c2cc(C)sc2C)cc1	-2.2	·	0.72	-11	-0.4	-3.8	13
COc1cccc(C2CC(C(F)(F)F)n3ncc(C(=O)NC(C)(C)C)c3N2)c1 (stereo unspecified)	-0.5	·	0.69	-7	2.4	1.8	0
CCCCSc1nnc(CCNC(=O)OC(C)(C)C)o1	0.1	i	0.68	0	3.3	-6.2	-1
CC(C)C(OC(=O)c1nsc(Cl)c1Cl)C(=O)NCC1CCCO1 (stereo unspecified)	3.9	i	·	-1	·	-5.3	-3
CCN(CC)C(=O)CC(c1ccc2c(c1)OCO2)c1c(OC)cc(OC)c2c(-c3ccccc3)cc(=O)oc12 (stereo unspecified)	-0.9	i	·	-2	·	0.2	-6
CC(NCC(=O)Nc1cc(Cl)cc(Cl)c1)c1ccccc1 (stereo unspecified)	1.4	i	0.52*	·	3.0	1.7	-2
COc1ccc(N2CCN(C(=O)CN(Cc3ccccc3)S(C)(=O)=O)CC2)cc1	-2.0	i	0.71	86*	1.8	1.9	4
Cc1ccc2nsnc2c1S(=O)(=O)N1CCN(Cc2ccc3c(c2)OCO3)CC1	-0.7	·	0.66	-8	1.9	4.3	-3
CCSc1nc2c(c(-c3ccc(C)o3)c1C#N)CCCC2	-3.1	·	0.7	83*	2.9	-5.4	5
C#CCOCCOCCOCCNc1nc(N2CCN(C(=O)[C@H](CCC(=O)O)n3cc([C@@H](N)[C@H](C)CC)nn3)CC2)nc(N2CCN(C(=O)[C@H](CCC(=O)O)n3cc([C@@H](N)CC(N)=O)nn3)CC2)n1	0.4	i	0.71	·	4.4	-1.3	0
O=S(=O)(c1ccc(Oc2ccc3oc4ccccc4c3c2)nc1)N1CCCC1	0.9	·	0.69	-4	1.3	-0.5	6
Cc1cc(C)cc(CN2CCC(Oc3ccc(C(=O)N4CCCC4)cc3)CC2)c1	-0.4	i	0.67	·	6.1	·	6
CCCC(=O)Nc1cccc(S(=O)(=O)N(C)c2ccccc2)c1	-2.5	·	0.7	16	3.5	1.3	0
CCCc1c(C(=O)N/N=C/c2cccc(OCc3ccc(F)cc3)c2)nnn1-c1nonc1N	4.8	i	·	-2	·	3.8	-84
Cc1cc(SCC#N)n2nc(C)c(-c3ccccc3)c2n1	2.1	·	0.67	40	5.0	-3.4	-4
CCOCCCN1C(=O)CN(C2CCCCC2)C(=O)C1c1ccc(OC)c(OC)c1 (stereo unspecified)	1.9	i	0.69	-9	-0.5	2.2	-4
